Vaccinia inh = blocks a specific stage of Vaccinia orthopoxvirus infection, primary screen, cell-based, single point. activity change (mCherry), % (test concentration not listed). AID 1053133, 2014. Vaccinia-infected cells, mCherry/Venus stage reporter fluorescence; stronger effect = lower value; some inactives read as strong as hits. 89,000 compounds, 0.01% hits;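 active = mCherry past -33% and 40 or more points under the early reporter, replicates agreeing; inconclusive = past -33% without that gap or agreement; tested in A549 cells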;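 note: scaled between vehicle wells and reference inhibitor wells; 23 nL library stock went into each well; one replicate is shown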
Vaccinia inh Venus = second read-out of Vaccinia inh, no call of its own (marks repeat the call); activity change (Venus), %; measured here: Venus reporter, other viral stage;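 negative = less Venus signal; first of two replicates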
The depositor's hits bear a star; ? = inconclusive; . = not tested or not shown.

SMILES	Vaccinia inh	Vaccinia inh Venus
CC(C)NC(=O)N(C)C[C@@H]1Oc2c(NS(=O)(=O)c3ccc(F)cc3)cccc2C(=O)N([C@H](C)CO)C[C@H]1C	12	0
COc1ccccc1NC(=O)N1C[C@H]2[C@@H](c3ccccc31)[C@H](CO)N2C(C)=O	-5	-4
COCCN(C[C@@H]1N[C@@H](CO)[C@@H]1c1ccc(-c2ccc(F)cc2)cc1)C(C)=O	-6	3
COc1ccccc1-c1cn(CC[C@@H]2CC[C@@H](NC(=O)C3CCC3)[C@H](CO)O2)nn1	-7	3
CN(C)CC(=O)N[C@H]1CC[C@H](CC(=O)NCCN2CCCCC2)O[C@@H]1CO	13	15
CC(C)NC(=O)NCC[C@H]1CC[C@H](NS(=O)(=O)c2ccccc2)[C@H](CO)O1	9	5
Cc1noc(C)c1S(=O)(=O)Nc1ccc2c(c1)CC(=O)N([C@H](C)CO)C[C@@H](C)[C@@H](CN(C)Cc1ccc(-c3ccccc3)cc1)O2	?	.
C[C@@H]1CN([C@@H](C)CO)C(=O)c2cc(NC(=O)CCCCCC(=O)Nc3ccccc3N)ccc2O[C@H]1CN(C)S(=O)(=O)c1cn(C)cn1	35	16
C[C@@H](NC(=O)C[C@H]1CC[C@@H]2[C@H](COC[C@@H](O)CN2C(=O)Nc2cccc(F)c2)O1)c1ccccc1	-14	-11
CCCC(O)C#Cc1cnc2c(c1)C(=O)N([C@H](C)CO)C[C@H](C)[C@H](CN(C)C)O2 (stereo partly drawn)	26	18
C/C=C/c1ccc([C@H]2[C@@H](CO)N(C(=O)COC)[C@@H]2CNC(=O)CC)cc1	1	5
CCCC#Cc1ccc2c(c1)O[C@@H](CN(C)C(C)=O)[C@H](C)CN([C@H](C)CO)S2(=O)=O	12	4
C[C@H](CO)N1C[C@H](C)[C@@H](CN(C)CC2CC2)Oc2cc(-c3ccccc3)ccc2S1(=O)=O	-7	-17
N#C[C@@H]1[C@@H](c2ccccc2-c2cccc(F)c2)[C@H](CO)N1C(=O)C1CCCCC1	9	9
C[C@@H]1CN([C@@H](C)CO)C(=O)c2cc(NC(=O)Nc3ccc(F)cc3)ccc2O[C@@H](C)CCCCO[C@@H]1CN(C)Cc1ccc2c(c1)OCO2	-32	-18
Cc1ccc(S(=O)(=O)Nc2ccc3c(c2)C(=O)N([C@@H](C)CO)C[C@H](C)[C@@H](CN(C)Cc2ccncc2)O3)cc1	22	11
COc1ccc(CN(C)C[C@H]2Oc3ccc(NC(=O)Nc4ccc(C(F)(F)F)cc4)cc3C(=O)N([C@@H](C)CO)C[C@@H]2C)cc1	?	.
CC(=O)N[C@H]1CC[C@@H](CCNC(=O)Nc2ccc(C(F)(F)F)cc2)O[C@H]1CO	-11	-3
CCC(=O)N1C[C@H]2[C@@H](c3ccccc31)[C@@H](CO)N2Cc1cc(F)ccc1F	3	7
COc1ccc(S(=O)(=O)N(C)C[C@H]2Oc3ccc(NS(=O)(=O)c4cccs4)cc3C(=O)N([C@H](C)CO)C[C@H]2C)cc1	5	12
COCC#Cc1cnc2c(c1)C(=O)N([C@@H](C)CO)C[C@H](C)[C@H](CN(C)C(C)=O)O2	0	3
C[C@H](CO)N1C[C@H](C)[C@H](CN(C)C)Oc2cc(C#CCC3CCCC3)ccc2S1(=O)=O	?	.
O=C(C[C@@H]1CC[C@H]2[C@@H](COC[C@@H](O)CN2C(=O)c2ccccc2F)O1)NCc1ccc(F)cc1	13	2
COc1ccc(-c2cnc3c(c2)C(=O)N([C@@H](C)CO)C[C@@H](C)[C@@H](CN(C)C(=O)Cc2ccccn2)O3)cc1	5	0
COc1ccc(NC(=O)N(C)C[C@@H]2Oc3c(NS(=O)(=O)c4ccc(C)cc4)cccc3C(=O)N([C@H](C)CO)C[C@@H]2C)cc1	19	11

Retrieved by compound from the entries so far (five):
SMILES	Vaccinia inh	Vaccinia inh Venus
CC(C)NC(=O)NCC[C@H]1CC[C@H](NS(=O)(=O)c2ccccc2)[C@H](CO)O1	9	5
COc1ccc(NC(=O)N(C)C[C@@H]2Oc3c(NS(=O)(=O)c4ccc(C)cc4)cccc3C(=O)N([C@H](C)CO)C[C@@H]2C)cc1	19	11
CCCC#Cc1ccc2c(c1)O[C@@H](CN(C)C(C)=O)[C@H](C)CN([C@H](C)CO)S2(=O)=O	12	4
CCCC(O)C#Cc1cnc2c(c1)C(=O)N([C@H](C)CO)C[C@H](C)[C@H](CN(C)C)O2 (stereo partly drawn)	26	18
Cc1noc(C)c1S(=O)(=O)Nc1ccc2c(c1)CC(=O)N([C@H](C)CO)C[C@@H](C)[C@@H](CN(C)Cc1ccc(-c3ccccc3)cc1)O2	?	.

New compounds follow:
SMILES	Vaccinia inh	Vaccinia inh Venus
C[C@@H]1CN([C@@H](C)CO)C(=O)c2cc(NC(=O)Cc3cn(C)c4ccccc34)ccc2O[C@@H]1CN(C)S(=O)(=O)c1cn(C)cn1	-7	-1
C/C=C/c1cnc2c(c1)C(=O)N([C@@H](C)CO)C[C@H](C)[C@@H](CN(C)C(=O)c1cccc(F)c1)O2	-13	-8
CCCNC(=O)[C@H]1[C@H](CO)[C@H]2Cn3c(ccc(-c4ccccc4F)c3=O)[C@H]2N1CC1CC1	-2	8
CN1c2ccc(C#Cc3cccnc3)cc2[C@@H]2[C@@H](CCN2C(=O)C2CCCC2)[C@H]1CO	-4	12
C[C@H]1CN([C@@H](C)CO)C(=O)c2cc(NC(=O)CCCCCC(=O)Nc3ccccc3N)ccc2O[C@@H]1CN(C)C(=O)Nc1ccc2c(c1)OCO2	-1	-2
COCC(=O)Nc1ccc2c(c1)[C@H]1C[C@H](CC(=O)NCc3ccc4c(c3)OCO4)O[C@H](CO)[C@H]1O2	23	21
C[C@H](NC(=O)[C@@H]1N[C@@H]2c3ccc(-c4cccnc4)c(=O)n3C[C@@H]2[C@H]1CO)c1ccccc1	10	0
C[C@H](CO)N1C[C@H](C)[C@H](CN(C)Cc2ccccc2)Oc2ccc(NS(=O)(=O)c3ccccc3)cc2C1=O	4	-6
COCC(=O)N1CC2(C1)CN(S(C)(=O)=O)[C@H](CO)c1c2c2ccc(OC)cc2n1C	7	1
Cc1noc(C)c1NC(=O)Nc1ccc2c(c1)C(=O)N([C@@H](C)CO)C[C@@H](C)[C@H](CN(C)C(=O)c1ccccc1)OCCCC[C@@H](C)O2	18	8
C[C@H](CO)N1C[C@H](C)[C@H](CN(C)Cc2cccc(C(F)(F)F)c2)Oc2ncc(C#CCN(C)C)cc2C1=O	6	-3
CO[C@@H]1CC[C@@H]2CCN(C)C(=O)[C@@H](C)[C@H](OC)CN(C)C(=O)c3cccc(C#N)c3OC[C@@H]1O2	2	-4
CCCNC(=O)C[C@@H]1CC[C@@H]2[C@H](COc3ccc(NC(=O)Nc4ccccc4F)cc3C(=O)N2C)O1	6	6
O=C(C1CCCC1)N1C[C@@H]2N[C@H](C1)C2c1ccc(-c2ccncc2)cc1 (stereo partly drawn)	?	.
COc1ccc2c3c(n(C)c2c1)[C@@H](CO)N(C(=O)C1CC1)CC31CCN(C(=O)C2CCOCC2)CC1	13	9
O=C(C[C@H]1C[C@@H]2c3cc(NC(=O)NC4CCCC4)ccc3O[C@@H]2[C@@H](CO)O1)NCc1ccc2c(c1)OCO2	8	7
C[C@H]1C=C(C(=O)Nc2ccccc2)O[C@@H](OCCCCO)C1	9	7
CCCNC(=O)[C@H]1[C@H](CO)[C@H]2Cn3c(ccc(-c4ccc(F)cc4)c3=O)[C@@H]1N2CCC	6	-1
CC=Cc1ccc2n(c1=O)C[C@H]1[C@H](CO)[C@@H](C(=O)NCC3CC3)N(C(=O)C3CCOCC3)[C@@H]21 (mixture of isomers)	6	12
C[C@@H]1CN([C@@H](C)CO)C(=O)c2cccc(NC(=O)Nc3ccc(C(F)(F)F)cc3)c2O[C@H]1CN(C)Cc1ccc(Oc2ccccc2)cc1	-2	-3
C[C@@H]1CCCCO[C@@H](CN(C)C(=O)CCC(F)(F)F)[C@@H](C)CN([C@@H](C)CO)C(=O)c2cc(NS(C)(=O)=O)ccc2O1	22	22
CCCNC(=O)N1C[C@@H](O)COC[C@@H]2O[C@@H](CC(=O)N3CCOCC3)CC[C@H]21	-2	1
C[C@@H]1CN([C@@H](C)CO)S(=O)(=O)c2ccc(/C=C/c3ccccc3)cc2O[C@@H]1CN(C)C(=O)Nc1cccc(F)c1	?	.
Cc1noc(C)c1NC(=O)N(C)C[C@H]1Oc2ccc(NC(=O)Nc3cccc4ccccc34)cc2CC(=O)N([C@H](C)CO)C[C@@H]1C	5	20
C[C@H](CO)N1C[C@H](C)[C@@H](CN(C)S(=O)(=O)c2ccc3ccccc3c2)OCc2cn(nn2)CCCC1=O	-29	-16
The list continues:
SMILES	Vaccinia inh	Vaccinia inh Venus
Cc1cccc(S(=O)(=O)N2C[C@@H]3[C@H](c4ccccc42)[C@H](CO)N3C(=O)c2ccccc2)c1	-17	-4
N#C[C@H]1[C@@H](c2ccc(-c3ccccc3F)cc2)[C@@H](CO)N1C(=O)C1CCC1	-17	-15
O=C(c1cnccn1)N1CC[C@@H]2[C@@H](CO)Nc3ccc(-c4ccccc4F)cc3[C@@H]21	-2	4
C[C@@H]1CCCCO[C@H](CN(C)Cc2ccncc2)[C@@H](C)CN([C@H](C)CO)C(=O)c2cc(NC(=O)Cc3ccccc3)ccc2O1	11	0
O=C(C[C@H]1CC[C@@H]2[C@H](COC[C@H](O)CN2C(=O)Nc2ccccc2)O1)NCCCN1CCOCC1	7	0
C[C@@H]1CN([C@H](C)CO)S(=O)(=O)c2ccc(C3=CCCC3)cc2O[C@H]1CN(C)Cc1ccccc1F	-32	-25
COc1ccc(-c2cnc3c(c2)C(=O)N([C@H](C)CO)C[C@H](C)[C@H](CN(C)S(=O)(=O)c2ccccc2)O3)cc1	17	6
Cc1noc(C)c1NC(=O)Nc1ccc2c(c1)C(=O)N([C@H](C)CO)C[C@@H](C)[C@H](CN(C)S(=O)(=O)c1ccc(Cl)cc1)OCCCC[C@@H](C)O2	-9	-16
COc1ccc(CN(C)C[C@H]2OCCCC[C@H](C)Oc3ccc(NC(=O)Nc4ccc5c(c4)OCO5)cc3C(=O)N([C@H](C)CO)C[C@@H]2C)cc1	?	.
CC(C)C(=O)Nc1ccc2c(c1)C(=O)N(C)[C@H]1CC[C@@H](CC(=O)Nc3ccccc3)O[C@H]1CO2	-1	-1
CNC[C@H]1OCCCC[C@@H](C)Oc2ccc(NS(=O)(=O)c3ccc(Cl)cc3)cc2C(=O)N([C@@H](C)CO)C[C@H]1C	-6	-3
COc1ccc(S(=O)(=O)N2C[C@H](O)COC[C@H]3O[C@@H](CC(=O)N[C@H]4CCN(Cc5ccccc5)C4)CC[C@@H]32)cc1	-9	11
C[C@H](CO)N1C[C@H](C)[C@H](CN(C)S(=O)(=O)c2ccc3c(c2)OCCCO3)OCc2cnnn2CCCC1=O	5	8
Cc1noc(C)c1S(=O)(=O)N(C)C[C@H]1OCCCC[C@H](C)Oc2ccc(NC(=O)Cc3ccccc3)cc2C(=O)N([C@H](C)CO)C[C@@H]1C	-27	-12
CC(=O)N(C)C[C@H]1Oc2cc(C#Cc3cccnc3)ccc2S(=O)(=O)N([C@@H](C)CO)C[C@H]1C	28	7
C[C@@H]1CN([C@H](C)CO)C(=O)Cc2cc(NS(=O)(=O)c3ccc(Cl)cc3)ccc2O[C@@H]1CN(C)Cc1ccncc1	7	0
COc1ccccc1NC(=O)N[C@@H]1CC[C@H](CC(=O)N[C@@H](C)c2ccccc2)O[C@H]1CO	5	11
COc1cccc(S(=O)(=O)Nc2ccc3c(c2)OC[C@@H](C)NC[C@@H](C)[C@H](OC)CN(C)C3=O)c1	7	6
C[C@@H]1CN([C@@H](C)CO)C(=O)c2cc(NC(=O)Cn3cnnn3)ccc2O[C@H]1CN(C)Cc1ccncc1	6	5
O=C(Nc1ccc2c(c1)[C@H]1C[C@@H](CC(=O)N3CCCCC3)O[C@@H](CO)[C@H]1O2)c1cccnc1	22	13
COc1ccccc1S(=O)(=O)N[C@@H]1C=C[C@@H](CC(=O)NCc2cc(F)cc(F)c2)O[C@@H]1CO	-7	1
CCS(=O)(=O)Nc1ccc2c(c1)C(=O)N(C)C[C@H](OC)[C@H](C)CN(C(=O)CN(C)C)[C@@H](C)CO2	-5	-6
O=C(O)C[C@@H]1CC[C@H](NC(=O)c2ccccc2F)[C@@H](CO)O1	0	-4
CC(C)C#Cc1cnc2c(c1)C(=O)N([C@@H](C)CO)C[C@@H](C)[C@@H](CN(C)C(=O)CC1CC1)O2	7	11
C[C@@H]1CN([C@H](C)CO)C(=O)Cc2cc(NS(=O)(=O)c3cccs3)ccc2O[C@@H]1CN(C)S(=O)(=O)c1ccc(F)cc1	10	14
Cc1noc(C)c1S(=O)(=O)N(C)C[C@@H]1Oc2c(NC(=O)c3cnccn3)cccc2C(=O)N([C@H](C)CO)C[C@@H]1C	15	11
COc1ccc(CN(C)C[C@@H]2Oc3c(NC(=O)CCCCCC(=O)Nc4ccccc4N)cccc3C(=O)N([C@H](C)CO)C[C@H]2C)cc1	-5	4
O=C(C[C@@H]1CC[C@H](NS(=O)(=O)c2ccc(F)cc2)[C@@H](CO)O1)NCc1ccccc1F	12	7

A second format for some results above:
canonical_smiles: C[C@@H]1CN([C@H](C)CO)S(=O)(=O)c2ccc(C3=CCCC3)cc2O[C@H]1CN(C)Cc1ccccc1F
  Vaccinia inh: -32
  Vaccinia inh Venus: -25

canonical_smiles: COc1ccc(-c2cnc3c(c2)C(=O)N([C@H](C)CO)C[C@H](C)[C@H](CN(C)S(=O)(=O)c2ccccc2)O3)cc1
  Vaccinia inh: 17
  Vaccinia inh Venus: 6

canonical_smiles: Cc1noc(C)c1NC(=O)Nc1ccc2c(c1)C(=O)N([C@H](C)CO)C[C@@H](C)[C@H](CN(C)S(=O)(=O)c1ccc(Cl)cc1)OCCCC[C@@H](C)O2
  Vaccinia inh: -9
  Vaccinia inh Venus: -16

canonical_smiles: COc1ccc(CN(C)C[C@H]2OCCCC[C@H](C)Oc3ccc(NC(=O)Nc4ccc5c(c4)OCO5)cc3C(=O)N([C@H](C)CO)C[C@@H]2C)cc1
  Vaccinia inh: ?
  Vaccinia inh Venus: .

These rows are one share of the data (hit frequency here may not be typical).
